HCMV UL50-53 inh – disrupts HCMV UL50-UL53 complex binding; HTRF UL50-UL53 interaction, normalized percent inhibition; inhibition, % (concentration not given with the values); actives 0.15% (n = 190,000); AID 1918969;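 active = both replicates at 50% or more, plus weaker picks with an unusually low signal ratio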;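 also: stock transfer was 100 nL into about 20 µL; 0% = negative control wells and 100% = wells with untagged competitor protein; inactives centre near -12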
GIV Gai3 FP – blocks GIV peptide binding to rat Galpha-i3; actives 0.42% (n = 210,000); Galpha-i3/FITC-GIV peptide fluorescence polarization, 90 min; hits give low values; scaled: aluminum fluoride 0%, vehicle 100%; AID 1224905; P08753; percent of control (FP), % (test concentration not listed);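 active = replicate mean at 85% of control or lower, very high polarization wells dropped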;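 also: wells of about 15 µL received 100 nL stock; the first replicate is given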
Target sequence (P08753 whole entry, looked up): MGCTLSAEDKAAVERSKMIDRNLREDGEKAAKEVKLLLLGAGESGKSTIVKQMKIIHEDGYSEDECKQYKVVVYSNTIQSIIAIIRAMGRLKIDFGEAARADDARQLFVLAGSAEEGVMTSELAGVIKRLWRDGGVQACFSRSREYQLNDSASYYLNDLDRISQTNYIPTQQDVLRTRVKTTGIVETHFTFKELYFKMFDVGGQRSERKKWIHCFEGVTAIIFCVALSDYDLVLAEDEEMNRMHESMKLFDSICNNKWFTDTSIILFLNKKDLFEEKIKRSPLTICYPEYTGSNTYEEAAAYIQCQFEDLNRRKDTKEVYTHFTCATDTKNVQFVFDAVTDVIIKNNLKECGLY
Sa growth inh – S. aureus growth inhibition; relative growth, % (test concentration not listed); AID 720641; actives 0.53% (n = 170,000); S. aureus RN4220 growth, OD600, 20 h, 42 °C; hits give low values;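 active = growth at 42 °C up to 50% and 20 or more points under that at 30 °C, or under 10% at both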;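 also: 300 nL library stock went into each well; scaled to the means of positive and negative controls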
Sa growth inh second temp – second read-out of Sa growth inh, no call of its own (marks repeat the call); relative growth, %; measured here: growth at 30 °C;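 optical density after 20 h as mean of two plates; 100% = untreated growth and lower means inhibition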
Numbers without * were called inactive; · = no result given; & = joins results of further samples.

1) CCOC(=O)C1=C(C)NC(C)=C(C(=O)OCC)C1C(=O)OCC(=O)N1CCCc2ccccc21
2) CCOC(=O)Nc1ccc(N2C(=O)C3C4C=CC(C4)C3C2=O)cc1 (stereo not given)
3) Cc1ccc(-n2c(CN3CCN(S(=O)(=O)c4ccc(CC(C)C)cc4)CC3)nc3cccnc32)cc1
4) CCCOc1ccc(C2NC(=O)NC(C)=C2C(=O)OCCOc2ccccc2)cc1OC (stereo not given)
5) c1ccc2c(c1)Nc1nc3ccccc3nc1N2
6) Cn1c(=O)c2c([nH]c(=S)n2Cc2ccc(F)cc2)n(C)c1=O
7) CCOc1cc(C(=O)Nc2c3c(nn2-c2ccc([N+](=O)[O-])cc2)CSC3)cc(OCC)c1OCC
8) CCn1c(=O)c(N2CCC(C(=O)NCc3cccc(OC)c3)CC2)nc2cccnc21

screen / no.	1	2	3	4	5	6	7	8
HCMV UL50-53 inh	-14	-9	-3	9	-19	-8	-7	-29
GIV Gai3 FP	·	108	110	107	105	99	103	99
Sa growth inh	98	106	·	·	112	·	·	·
Sa growth inh second temp	98	94	·	·	84	·	·	·

9) CCc1ccc(NC(=O)c2ccc3c(Cl)c4c(nc3c2)CCC4)cc1
10) CCC(C(=O)NC1CCCC1)N(C(=O)Cn1nnc(-c2cccs2)n1)c1cnc2ccccc2c1 (stereo not given)
11) COc1ccccc1NC(=S)N(C)CCO
12) O=C(NC1CCS(=O)(=O)C1)c1cccc(-n2nnc3cccnc32)c1 (stereo not given)
13) Cc1c(C(=O)NC(C)C)oc2ccc3c(c12)C(O)CC(C)(C)O3 (stereo not given)
14) CCOC(=O)Cn1c(=O)n(C2CCCCC2)c2nc(-c3ccc(C(C)C)cc3)nc(C(N)=O)c21
15) Cc1cccc(/N=C/c2c(O)n(Cc3ccc4c(c3)OCO4)c(=O)c3ccccc23)n1
16) Cc1nc(C(F)(F)F)ccc1C(=O)Nc1ccc(C(F)(F)F)cn1

screen / no.	9	10	11	12	13	14	15	16
HCMV UL50-53 inh	·	-6	-28	-38	-25	·	-23	-10
GIV Gai3 FP	99	106	·	111	102	104	·	102
Sa growth inh	89	106	94	·	88	91	104	90
Sa growth inh second temp	97	93	94	·	82	90	94	81

17) Cc1ccc(-c2csc(C(N)=O)c2-n2cccc2)cc1
18) CO[C@H]1O[C@H](CO)C(=O)C(O)=C1N
19) O=C(O)c1cc(-c2ccccc2)c(N2CCOCC2)s1
20) CCN(CC)CCN(CCC(=O)N1CCNCC1)C(=O)c1ccc(Br)cc1
21) CCOC(=O)c1ccc(CN(Cc2ccc(F)cc2)S(=O)(=O)c2ccc(F)c(C(=O)Nc3c(C)cccc3C)c2)cc1
22) O=C(COc1ccccc1)NC(C(=O)O)C12CC3CC(CC(C3)C1)C2 (stereo not given)
23) Cc1cccc(CSc2nc3ccncc3n2CC(=O)Nc2ccc(N(C)C)cc2)c1
24) COc1ccccc1NC(=O)c1cc2c(C)nn(-c3ccccc3)c2s1

screen / no.	17	18	19	20	21	22	23	24
HCMV UL50-53 inh	14	4	-22	7	·	-28	-26	0
GIV Gai3 FP	97	·	101	99	103	94	104	111
Sa growth inh	·	103	116	·	125	112	·	89
Sa growth inh second temp	·	90	94	·	93	83	·	79

Single records, as listed above. Order of values: HCMV UL50-53 inh, GIV Gai3 FP, Sa growth inh, Sa growth inh second temp
Profile of `Cc1cccc(/N=C/c2c(O)n(Cc3ccc4c(c3)OCO4)c(=O)c3ccccc23)n1` → -23, ·, 104, 94
Profile of `CCOC(=O)c1ccc(CN(Cc2ccc(F)cc2)S(=O)(=O)c2ccc(F)c(C(=O)Nc3c(C)cccc3C)c2)cc1` → ·, 103, 125, 93

Following part:
25) CC(=S)Nc1ccc2c(c1)OCO2
26) CC1(C)Cc2nnc3c4c(nnc(c24)C1)CC(C)(C)C3
27) Cc1occc1-c1nnc(SC(C)C(=O)N2CCCc3ccccc32)o1 (stereo not given)
28) CCC(CC)NC(=O)COc1ccc(-c2nnco2)cc1
29) CC(C)c1ccc(C(C)NC(=O)C2=COCCO2)cc1 (stereo not given)
30) O=C1Nc2ccccc2N(O)N1c1ccc(O)cc1
31) CC(C)CNC(=O)C1CCCCC1C(=O)O (stereo not given)
32) OC1(C2(O)CC(c3ccccc3)NO2)CCCCC1 (stereo not given)

screen / no.	25	26	27	28	29	30	31	32
HCMV UL50-53 inh	-26	-29	-22	-16	-13	-4	-3	-7
GIV Gai3 FP	·	99	99	·	·	103	·	·
Sa growth inh	108	99	·	85	93	105	112	92
Sa growth inh second temp	98	90	·	89	96	89	90	93

33) COc1ccc(-c2cc(C(=O)N3CCN(c4ccc(N5CCOCC5)nn4)CC3)[nH]n2)cc1
34) COc1ccc2c(CC(=O)OCC(=O)Nc3cc(C(F)(F)F)ccc3N3CCOCC3)coc2c1
35) CCN(CC)C(=O)/C=C\c1cn(-c2ccccc2)nc1-c1ccc(OC)cc1
36) COC(=O)c1ccc(OCC2c3cc(OC)c(OC)cc3CCN2C(=O)Cc2ccc(OC)cc2)cc1 (stereo not given)
37) COc1ccc(OC)c(NC(=O)c2cc(CN3CCCC3)on2)c1
38) Cc1cccc(NC(=O)CC(=O)Nc2ccc3nc4n(c(=O)c3c2)CCCCC4)n1
39) Cc1cccc(NC(=O)N2CCSc3ncccc32)c1C
40) COC(=O)C1=CN(Cc2ccc3c(c2)OCO3)C=C(C(=O)OC)C1c1ccc2c(c1)OCO2

screen / no.	33	34	35	36	37	38	39	40
HCMV UL50-53 inh	-17	-35	-39	·	·	-22	-7	-26
GIV Gai3 FP	103	·	·	103	104	101	99	100
Sa growth inh	·	89	123	114	91	·	·	88
Sa growth inh second temp	·	88	79	87	94	·	·	89

41) Cc1cccc(NC(=O)CNC(=O)Cc2ccc3c(c2)OCCO3)c1C
42) O=C(NC1CCCCC1)c1ccccc1F
43) CCn1c(C)nnc1SCc1cccc(Cl)c1
44) CC1CCN(C(=O)c2ccc3c(Cl)c4c(nc3c2)CCC4)CC1
45) Cc1ccc(C23CCC(=O)N2C(C(=O)NC2CC2)CS3)cc1 (stereo not given)
46) CC(C)COc1ccc(C(=O)OCCN2CCCCC2)cc1
47) Clc1ccc(-c2nc3c4cnn(-c5ccccc5Br)c4ncn3n2)c(Cl)c1
48) CC(c1ccccc1)C1Nc2ccccc2C(=O)N1c1ccccc1 (stereo not given)

screen / no.	41	42	43	44	45	46	47	48
HCMV UL50-53 inh	6	-18	-43	-9	1	·	-14	-6
GIV Gai3 FP	·	101	99	100	·	100	98	·
Sa growth inh	127	110	101	·	103	104	114	113
Sa growth inh second temp	102	96	101	·	90	91	88	74

49) CS(=O)(=O)Nc1ccccc1C(N)=O
50) COc1cc(C(=O)CSc2nccc(C)n2)cc(OC)c1OC
51) Cc1nc2ccccc2c(=O)n1-c1ccc(C(=O)NC(C)c2ccccn2)cc1 (stereo not given)
52) CCc1ccc(-c2cc3c(=O)n(CC(=O)NC4CCCC(C)C4C)nc(C)n3n2)cc1 (stereo not given)
53) CCOc1ccc(N2C(=O)NC(=O)/C(=C/c3ccc(OC)c(OC)c3)C2=O)cc1
54) COc1ccc(NC(=O)CSc2ncc(S(=O)(=O)c3ccccc3)c(=O)[nH]2)c(OC)c1
55) CC(C)[C@@H](C(=O)O)N1Cc2ccccc2C1=O
56) CCC1Oc2ccc(C)cc2N(CC(=O)NCC2COc3ccccc3O2)C1=O (stereo not given)

screen / no.	49	50	51	52	53	54	55	56
HCMV UL50-53 inh	-17	-10	10	·	3	2	-23	·
GIV Gai3 FP	·	·	·	103	111	105	109	109
Sa growth inh	83	88	124	96	·	117	81	106
Sa growth inh second temp	87	86	98	92	·	95	92	84

57) CC1CCN(c2nc3ccccn3c(=O)c2/C=N/NC(=O)c2ccccc2)CC1
58) COc1ccc2oc(=O)cc(C)c2c1
59) CN1CCN(Cc2nc3cc(NC(=O)C4CCCCC4)ccc3n2C)CC1
60) CC(C)NC(=O)c1ccc(OC2CSC2)cc1
61) CC(C)c1cc(C(=O)NCc2ccc(Cl)cc2)no1
62) CSc1nn(Cc2ccccc2)c(N)c1S(=O)(=O)c1ccccc1
63) COc1ccc(CN(C)CCc2ccccn2)c(OC)c1OC
64) O=c1[nH]c2c(n1-c1ccccc1)C=Nc1cc3ccccc3cc1N2

screen / no.	57	58	59	60	61	62	63	64
HCMV UL50-53 inh	-14	-8	-15	1	·	-22	·	·
GIV Gai3 FP	105	·	102	101	104	103	100	104
Sa growth inh	93	82	·	94	108	101	85	95
Sa growth inh second temp	82	91	·	81	90	91	86	69

65) CC(C)c1cccc(C(C)C)c1NC(=O)Cc1cccs1
66) Cc1cc(C(=O)NCc2ccc3c(c2)OCCCO3)nn1C
67) FC(F)(F)C12CC(c3ccccc3)=NCCN1CCN2 (stereo not given)
68) O=C(CSc1nc2nn(-c3ccccc3)c(=O)c-2c2n1CCCCC2)Nc1ccc2c(c1)OCO2
69) COCc1nnc(C(=O)Nc2ccc(C(=O)NCCCN3CCc4ccccc4C3)cc2)s1
70) CCCCn1c(=O)c2sccc2n2c(CCC(=O)N3CCC(N4CCCCC4)CC3)nnc12
71) CC1CC(C)CN(S(=O)(=O)c2ccc(C(=O)Nc3cccc4c3C(=O)c3ccccc3C4=O)cc2)C1 (stereo not given)
72) O=C(NCCn1c(CCc2ccccc2)nc2ccccc21)c1cccnc1

screen / no.	65	66	67	68	69	70	71	72
HCMV UL50-53 inh	-12	-3	-41	-35	-16	-19	-4	-22
GIV Gai3 FP	·	110	101	·	106	93	99	100
Sa growth inh	90	98	90	95	·	·	·	·
Sa growth inh second temp	77	99	78	96	·	·	·	·

73) CCn1c(C)c(C2=CCN(S(=O)(=O)c3ccc(C)cc3)CC2)c2ccccc21
74) CCOC(=O)c1ccc(-n2c(C)cc(/C=N/O)c2C)cc1
75) CC(C)CNc1cc(C(C)C)c(C#N)c2nc3ccccc3n12
76) CCOC(=O)c1c(-c2c(Cl)cccc2Cl)noc1N
77) O=C(N/N=C/c1cccnc1)c1ccc(CN2CCOCC2)cc1
78) CC(C)C(C(=O)O)N1C(=O)/C(=C/c2ccc(Cl)cc2Cl)SC1=S (stereo not given)
79) CN(C)S(=O)(=O)c1ccc(S(=O)(=O)N2CCN(C=O)CC2)cc1
80) COc1cc(/C=C(\C#N)C(=O)NCc2cccnc2)ccc1O

screen / no.	73	74	75	76	77	78	79	80
HCMV UL50-53 inh	4	·	-15	-2	-29	-4	2	-65
GIV Gai3 FP	118	107	99	103	104	108	106	187
Sa growth inh	112	93	89	104	102	·	67	90
Sa growth inh second temp	100	108	83	100	105	·	99	77

81) Cc1ccc(NC(=O)C2CCN(c3nn4c(=O)cc(C)nc4s3)CC2)cc1
82) CCOC(=O)C1=C(C)NC2=C(C(=O)CC(c3ccc(OC)c(OC)c3)C2)C1c1cc(OC)c(OC)cc1OC (stereo not given)
83) Cc1ccc2nc(-c3cc(NC(=O)c4ccc5c(c4)OCCO5)ccc3Cl)oc2c1
84) c1ccc(-c2nnc(Cc3cn4ccsc4n3)o2)cc1
85) CC(C)(C)C(=O)Nc1ccc(-c2cc3cc(Cl)ccc3o2)cc1
86) O=C(NCCSc1ccccc1)c1cccnc1Oc1ccccc1
87) S=C(NCCN1CCOCC1)N1CCC(Cc2ccccc2)CC1
88) Cc1cc(C(=O)NCc2ccco2)c(C)o1

screen / no.	81	82	83	84	85	86	87	88
HCMV UL50-53 inh	-17	-55	8&-26	-2	-31	·	-23	4
GIV Gai3 FP	105	101	108&103	·	97	96	·	98
Sa growth inh	96	·	91	106	108	115	89	99
Sa growth inh second temp	88	·	103	92	87	76	84	107

Two compounds from above, showing only HCMV UL50-53 inh, Sa growth inh second temp and Sa growth inh:
| No. | structure | HCMV UL50-53 inh | Sa growth inh second temp | Sa growth inh |
| --- | --- | --- | --- | --- |
| 82 | CCOC(=O)C1=C(C)NC2=C(C(=O)CC(c3ccc(OC)c(OC)c3)C2)C1c1cc(OC)c(OC)cc1OC (stereo not given) | -55 | · | · |
| 83 | Cc1ccc2nc(-c3cc(NC(=O)c4ccc5c(c4)OCCO5)ccc3Cl)oc2c1 | 8&-26 | 103 | 91 |

New compounds follow:
89) COc1ccc(-c2nc(CCNC(=O)c3cccs3)cs2)cc1OC
90) CCC(=O)N1CCc2cc(Br)cc(S(=O)(=O)N3CCN(c4ccc(C(C)=O)cc4)CC3)c21
91) CCOC(=O)N1CC=C(c2c(C)[nH]c3ccccc23)CC1
92) CCSc1ncc2c(c1C#N)CCC2
93) OC(COc1ccccc1)CN1CCN(c2ccc(C(F)(F)F)cn2)CC1 (stereo not given)
94) CCOC(=O)C1CCN(C(=O)CCN2C(=O)c3ccccc3Sc3ncccc32)CC1
95) CC(Oc1ccccc1F)C(=O)Nc1ccc2c(c1)NC(=O)CO2 (stereo not given)
96) Cc1cc(C)cc(NC(=O)/C=C\C(=O)O)c1
97) Cc1cccc(C)c1Nc1c(-c2ccsc2)nc2cccc(C)n12
98) COc1ccccc1C1CC(c2ccc(C)cc2)=NN1S(=O)(=O)c1ccccc1 (stereo not given)
99) Cc1ccc2c(c1)Cc1c(nc(-c3ccc(F)cc3)nc1SCC(=O)N1CCCCC1)O2

screen / no.	89	90	91	92	93	94	95	96	97	98	99
HCMV UL50-53 inh	·	-28	·	25	-5	·	-10	-15	8	-25	-19
GIV Gai3 FP	109	102	105	106	109	104	102	106	106	130	105
Sa growth inh	101	91	93	90	93	103	·	101	106	·	106
Sa growth inh second temp	98	93	89	109	94	92	·	100	89	·	80

From PubChem BioAssay
